Screening data (PubChem BioAssay)
gsp antagonist: gsp mutant antagonism | gsp-mutant cells, cAMP HTRF, 30 min; control for the full effect not named in the record | Potency, µM (highest dose often 76.9 µM), without a hit: at the top dose activity change, negative = inhibition, usual class: inhibitors | actives 0.4% (n = 340,000) | AID 624288; active = falling curve of any shape with a large fitted effect; inconclusive = falling curve, mostly with a smaller effect; inactive = flat or rising curve; cell line not stated here;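 also: intracellular cAMP measured with PDE inhibitor Ro 20-1724 present during compound exposure; potency is read from the fitted curve at half-maximal effect; % is scaled to controls: 0 for no effect and ±100 for the full control effect; nearly all actives have a fitted effect of over 65% in size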
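Cells, 2000/well, grown 16–24 h in DMEM 10% FBS with 0.5 mg/ml G418, then compounds plus […] (300 uM addition stock), 30 min at 37C. cAMP read by HTRF (cAMP-d2 and anti-cAMP antibody-K in lysis buffer) after 30 min RT.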
Menin MLL FP FL: displaces fluorescein MLL peptide from human menin | Fluorescence polarization, fluorescein-MLL peptide displacement from menin | FP activity change, % at 61.4 µM | 290,000 tested, under 10 active | AID 1766; inconclusive = falling polarisation curve, or a change in total fluorescence; inactive = total fluorescence flat and polarisation flat or rising; no compound was filed as active; the % refers to the polarisation; negative = inhibition;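 also: % of control where 0% means no effect; inhibitors lower the polarisation; unlabelled MLL peptide was the positive control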
PINK1 modulator: changes PINK1 expression; Potency, µM (highest dose often 76.6 µM), inactives show at the top dose activation (PINK1 increase), usual class: activators; PINK1 immunofluorescence, high-content cytometry, 24 h; actives 0.2% (n = 410,000); active = well fitted activation curve with a large enough effect; inconclusive = small, poorly fitted or top-dose-only effect; inactive = flat fitted curve, though single readings scatter; cell line not stated here;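 also: potency is read from the fitted curve at half-maximal effect; % of control where 0% means no effect; nearly all actives have a fitted effect of over 65% in size; a mitochondrial uncoupler was the plate control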
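Stable cell line treated 24 h with compounds at 5 concentrations (CCCP controls), then fixed and immunostained for PINK1 plus nuclear and cell stains; PINK1 immunofluorescence quantified by laser-scanning microplate cytometry.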
D2 agonist: activates the human D2 dopamine receptor; P14416; DiscoveRx PathHunter D2 beta-arrestin, luminescence, 90 min; 100% = 57 uM dopamine signal; activation, % (test concentration not listed); actives 0.084% (n = 360,000); AID 624465; in the data active = activation above about 40%; inconclusive = about 15% to 40%; inactive = below about 15%; also: compound concentration not given in the record; the text of the record calls up to 30% inactive
Target sequence (P14416 whole entry, looked up): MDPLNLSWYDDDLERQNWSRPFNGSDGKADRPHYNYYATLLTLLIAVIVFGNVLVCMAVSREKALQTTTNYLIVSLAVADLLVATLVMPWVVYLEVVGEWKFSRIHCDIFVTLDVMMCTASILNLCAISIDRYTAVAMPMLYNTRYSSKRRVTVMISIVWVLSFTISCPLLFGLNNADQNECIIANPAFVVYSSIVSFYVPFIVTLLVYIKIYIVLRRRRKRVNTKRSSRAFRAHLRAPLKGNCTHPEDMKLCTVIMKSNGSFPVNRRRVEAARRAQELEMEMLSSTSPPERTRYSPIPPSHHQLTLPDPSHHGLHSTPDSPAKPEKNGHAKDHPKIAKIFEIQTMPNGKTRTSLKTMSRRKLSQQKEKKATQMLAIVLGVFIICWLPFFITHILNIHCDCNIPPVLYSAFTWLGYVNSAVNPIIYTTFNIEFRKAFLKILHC
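Agonist mode: compounds alone added to overnight-plated D2 PathHunter cells for 90 min at 37 C, with 57 uM final dopamine (EC100) defining full response. Beta-arrestin recruitment detected by chemiluminescent reagent, read after 1 h at ambient temperature.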
gsp agonist: gsp mutant agonism; gsp mutant cells, cAMP HTRF, 30 min; control for the full effect not named in the record; Potency, µM (highest dose often 76.9 µM), without a hit: at the top dose activation (cAMP increase), hits mostly activators; actives 0.13% (n = 340,000); AID 624287; active = well fitted activation curve with a large enough effect; inconclusive = small, poorly fitted or top-dose-only effect, or another doubt; inactive = no such curve, though single readings can be large or run the other way; cell line not stated here;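 also: phosphodiesterase inhibitor Ro 20-1724 added with compounds to block cAMP breakdown; potency is read from the fitted curve at half-maximal effect; nearly all actives have a fitted effect of over 60% in size; about a fifth of the inactives were tested at one dose only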
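Cells stably selected in G418 were plated at 2000/well, grown 16-24 hr, then given compounds in DMSO with the PDE inhibitor […] (300 uM solution added) for 30 min at 37C; cAMP was read by HTRF.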
ClpP mod: qHTS Assay for Activators of ClpP. ATP-dependent Clp protease proteolytic subunit (Bacillus subtilis (strain 168)), P80244. purified B. subtilis ClpP, FRET peptide cleavage, 20 min. Potency, µM (series often up to 57.5 µM), without a hit: at the highest dose activity change, negative = active. actives 1.9% (n = 340,000). AID 651965, 2013; active = well fitted falling curve with a large enough effect; inconclusive = small, poorly fitted or top-dose-only effect; inactive = no such curve, though single readings can be large or run the other way; also: potency is read from the fitted curve at half-maximal effect; the source files actives as falling curves though it sought activators and does not explain the sign; nearly all actives have a fitted effect of over 65% in size; many hits overshoot -100%
Target sequence (P80244 whole entry, looked up): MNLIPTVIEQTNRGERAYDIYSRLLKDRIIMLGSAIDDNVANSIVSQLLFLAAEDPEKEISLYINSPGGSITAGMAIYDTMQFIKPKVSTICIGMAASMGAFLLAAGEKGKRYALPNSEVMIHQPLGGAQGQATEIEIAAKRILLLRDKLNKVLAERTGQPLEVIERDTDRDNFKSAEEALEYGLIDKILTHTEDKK
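FRET quenching reversal measured ClpP activation: 10 microg/mL B. subtilis ClpP at pH 8 with the FRET-FV decapeptide, read at 430 nm after 320 nm excitation. The 20-min minus 0-min signal was scaled between DMSO/no-enzyme wells and ADEP (5.8 microM final).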
Sfp PPTase inh: inhibitors of Bacillus subtilis Sfp phosphopantetheinyl transferase; actives 3.5% (n = 310,000); Biochemical Sfp PPTase activity, qHTS; Potency, µM, for the others: max response, negative = inhibition, hits mostly inhibitors; Q9F4F7; active = well fitted inhibition curve with a large enough effect; inconclusive = small, poorly fitted or top-dose-only effect, or another doubt; inactive = no such curve, though single readings can be large or run the other way;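 also: the enzyme is Sfp with the accession as filed and its product quenches rhodamine fluorescence; potency is read from the fitted curve at half-maximal effect; 0% = enzyme reaction without inhibitor and -100% = no enzyme wells; top concentration of the series not given in the record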
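Buffer: 50 mM Hepes-Na pH 7.6, 10 mM MgCl2, 0.01% Nonidet P-40, 0.01% BSA. Enzyme 15 nM, pre-exposed to compound 15 min; substrates then added and fluorescence change tracked over 30 min.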
The depositor's hits bear a star; ? = inconclusive; · = no result given; & = joins results of further samples; [ ] = remark or other dose.

SMILES	gsp antagonist	Menin MLL FP FL	PINK1 modulator	D2 agonist	gsp agonist	ClpP mod	Sfp PPTase inh
COC(=O)[C@H](Cc1ccc(O)cc1)NC(=O)Cn1cnc2c(OCc3ccccc3)ncnc21	0%	·	-0.4%	-2.0	·	-3.4%	·
CCc1ccc(-c2cc(C(F)(F)F)n3nc(C(=O)Nc4c(C)nn(Cc5ccc(F)cc5)c4C)cc3n2)s1	-4%	0.3	-0.9%[38.3 µM]	-1.4	10%	-11%	?
CCOC(=O)N1CCN(C(=O)C2CCN(C(=O)c3ccc([N+](=O)[O-])cc3)CC2)CC1	0%	-2.2	-1.0%	-3.4	-111%[inhibitor]	-1.5%	7%
O=C(NCCC1CCCCN1S(=O)(=O)c1ccc(F)cc1)C(=O)Nc1ccccc1 (stereo unspecified)	-5%	·	1.7%	-1.9	3%[15.4 µM]	-13%	·
COc1ccc(/C=N/NC(=O)Cc2ccc(Cl)cc2)cc1OC	9%	-4.0	-0.5%	-0.2	-3%[15.4 µM]	·	19%
COc1ccc(N2C(=O)N3[C@H](c4ccc(Cl)cc4)[C@@H]4C(=O)N(C5CCCCC5)C(=O)[C@@H]4[C@]3(C)C2=O)cc1	6%	0.8	1.3%	-4.2	24%	-2.3%	9%
O=C(NNC(=O)c1ccccc1O)c1ccccc1O	-3%	·	-4.0%	-3.7	3%	-17%	·
CCn1cc(C(C)(C)C)c(C#N)c1NC(C)=O	7%	2.5	1.0%	-2.0	14%	79%	22%
N#C/C(=N\Nc1cccc(C(F)(F)F)c1)C(=O)c1ccsc1	-16%	-0.4	11µM*	2.8	-8%	-2.3%	16%
Cc1ccc2c(c1)C1CN(C)CCC1N2S(=O)(=O)c1ccc(Oc2ccc([N+](=O)[O-])cc2)cc1 (stereo unspecified)	-3%	-0.5	3.5%	-7.9	-7%	-1.5%	?
O=C(Nc1ccccn1)c1ccc(Br)s1	-7%	-3.2	-0.9%	3.6	0%[15.4 µM]	-0.7%	16%
CN1OC[C@@H]2CN[C@H](c3ccc(-c4ccccc4)cc3)C[C@@H]21	·	·	-0.1%	-10	10%	-2.0%	·
CCOc1cc(CNc2ncnc3nc[nH]c23)ccc1OC	16%	6.1	0.7%	-4.2	-41%[inhibitor]	1.0%	11%
Cc1ccc(C(=O)N/N=C\c2ccc([N+](=O)[O-])o2)cn1	-5%	1.4	9.3%	7.2	8.9µM*	·	-16%
NC(=O)NCCCC(=O)NCC(c1ccccc1Cl)c1c[nH]c2ccccc12 (stereo unspecified)	4%	-2.1	0.4%	-1.7	1%	-0.1%	9%
C=CCn1c(N)c(C(=O)Nc2ccccc2OC)sc1=S	8%	-2.5	2.5%[38.3 µM]	-0.3	-24%	-0.9%	-2%
CC(=O)C[C@H]1c2ccccc2S(=O)(=O)N1c1ccccc1	10%	·	1.9%	-5.9	·	-1.3%&2.3%	·
CCNC(=O)C/C(C)=N/NC(=O)C1CCCCC1	15%	4.7	0.7%	-2.2	13%	-1.2%	-1%
O=C(Oc1ccccc1)N1CCC2(CC1)CCN(c1ccccn1)CC2	·	2.4	0.2%	·	·	·	0%
O=C(NCC(=O)N1CCN(C(c2ccccc2)c2ccccc2)CC1)c1ccccc1Br	·	·	-0.3%	0.9	-22%	0.1%	·
CC(C)(C)c1ccc(C(=O)COC(=O)CN2C(=O)NC3(CCCC3)C2=O)cc1	8%	·	-0.7%	-1.6	7%	?	11%
CCN(Cc1ccccc1)C(=O)CC1Oc2ccccc2NC1=O (stereo unspecified)	-11%	2.7	-1.2%	-0.4	29%	1.8%	-20%
Cc1nn(CCC(=O)O)c(C)c1C	8%	3.0	?	-1.5	-26%	1.3%	12%
COc1ccc(S(=O)(=O)N2CCCCCC2)cc1C(=O)OCC(=O)NC(C)(C)C	-7%	2.4	-0.7%	1.1	-7%	·	17%
O=C1CSC(=S)N1N=Cc1c(F)cccc1Cl	·	·	1.4%	0.6	-7%	-1.5%	·
CCCCCCC(=O)Nc1ccc(S(=O)(=O)Nc2onc(C)c2C)cc1	0%	·	1.2%	-4.3	-1%	-1.0%	·
CCOC(=O)C1CCN(C(=O)C2CCCN(c3ncnc4c3nc3n4CCCCC3)C2)CC1 (stereo unspecified)	-11%	·	1.3%	-0.3	9%	-0.7%	6%
COc1cccc(NC(=O)CSc2nnc(-c3cc(C)n(-c4ccccc4)c3C)o2)c1	-22%	3.7	-0.4%	5.8	1%	-5.5%	11%
O=C(O)c1ccccc1C(=O)OCc1c(-c2ccccc2)ncc2ccccc12	-22%	·	-0.5%	0.1	0%	-9.6%	·
O=S(=O)(CCc1ccccc1)/N=C/c1cccs1	-2%	0.7	-1.9%	-0.8	-58%[inhibitor]	-1.1%	21%

Overlap with the part before: two entries; new compounds follow.
SMILES	gsp antagonist	Menin MLL FP FL	PINK1 modulator	D2 agonist	gsp agonist	ClpP mod	Sfp PPTase inh
O=C(O)c1ccccc1C(=O)OCc1c(-c2ccccc2)ncc2ccccc12	-22%	·	-0.5%	0.1	0%	-9.6%	·
O=S(=O)(CCc1ccccc1)/N=C/c1cccs1	-2%	0.7	-1.9%	-0.8	-58%[inhibitor]	-1.1%	21%
CCC(=O)N1c2ccccc2NC2=C(C(=O)CC(C)(C)C2)C1c1cccnc1 (stereo unspecified)	11%	-8.4	0.7%	-0.3	-8%	1.7%	9%
CCCN(C(=O)CCNC(=O)c1ccc(Cl)cc1)c1c(N)n(Cc2ccccc2)c(=O)[nH]c1=O	16%	·	13%	-0.8	-18%	2.4%	·
CCS(=O)(=O)c1ccc(-c2cccc(NC(=O)c3ccco3)c2)nn1	-2%	·	1.1%	0.8	6%	0.9%	·
COc1ccc2sc(-c3ccc(SC)cc3)c(C#CCO)c2c1	?	·	12%	0.4	·	4.3%	·
Cc1c(NC(=O)COC(=O)c2ccc[nH]c2=O)c(=O)n(-c2ccccc2)n1C	18%	-0.7	0.0%	-3.4	-14%[15.4 µM]	18µM*	33%[activator]
O=C1c2cccc3cccc(c23)C(=O)N1c1cccnc1	7%	-0.6	-2.4%[38.3 µM]	0.7	3%	16µM*	?
Cc1ccc(S(=O)(=O)N2CCCC2C(=O)N(C)Cc2cccs2)cc1 (stereo unspecified)	8%	3.6	-0.7%	2.1	-22%	3.8%	25%
CN(C)S(=O)(=O)c1cccc(NC(=O)c2cccc(S(=O)(=O)N3CCCCC3)c2)c1	-20%	·	-1.1%	-1.7	-34%[inhibitor]	-2.8%	·
O=C(N1CCCCC1)C1(S(=O)(=O)c2ccccc2)CC=CC1	5%	-1.6	-0.4%	-3.2	7%	1.1%	9%
CC(C)(C)OC(=O)NC(CNCc1ccccc1)Cc1ccccc1 (stereo unspecified)	9%	·	9.0%	1.9	·	-4.6%	·
COc1cc(OC)cc(C(=O)NCC(=O)Nc2ccc(-c3ccccc3)cc2)c1	9%	1.5	7.4%	2.2	5%	·	-1%
O=C(COc1ccc2ccc(=O)oc2c1)NCCCn1ccnc1	5%	-0.7	0.8%	-0.9	18%	3.7%	6%
COc1ccc(CNC(=O)COC(=O)c2cc3ccccc3o2)cc1	5%	·	6.8%	-3.0	3%[15.4 µM]	-10.0%	·
C(=C\CSc1nnnn1-c1ccccc1)/CSc1nnnn1-c1ccccc1	-18%	0.8	-1.0%	-1.4	-31%[inhibitor]	-0.1%	0%
O=C(CSc1nc(C(F)(F)F)cc(=O)[nH]1)NCC1CCCO1 (stereo unspecified)	3%	·	-1.0%	-2.2	4%	-2.7%	·
CN(C)S(=O)(=O)N(CC(=O)N(Cc1ccccc1)Cc1ccccc1)c1ccccc1	?	2.8	1.6%[38.3 µM]	0.9	-9%	0.1%	-11%
CC(C)c1ccc(NC(=O)C2Cc3c(-c4ccc5c(c4)OCO5)ccnc3O2)cc1 (stereo unspecified)	·	·	1.5%	6.0	·	5.1%	·
CCN(CC)C(=O)C1=C(C)N(Cc2ccc(OC)cc2)C(=O)C(CC(=O)NC2CCCC2)C1 (stereo unspecified)	·	·	1.9%	4.5	-18%	2.3%	·
CCOC(=O)N1CCN(S(=O)(=O)N2CCCC(C(=O)NCCCN3CCC(C)CC3)C2)CC1 (stereo unspecified)	0%	·	-1.3%	0.3	17%	0.5%	7%
CC(=O)c1cc(-c2ccc(F)cc2)n(CCC(=O)Nc2cccc(C)n2)c1C	-16%	-1.4	0.3%	-2.6	11%	·	8%
OC(COc1ccc(CNCCc2ccc(C(F)(F)F)cc2)cc1)CN1CCCCC1 (stereo unspecified)	·	2.6	-1.3%	-3.1	-13%[15.4 µM]	·	14%
CCOC(=O)[C@@H]1[C@H]2COc3cc(OC)ccc3[C@H]2N2C(=O)N(c3cccc(C)c3)C(=O)[C@]12C	-19%	·	-0.8%	0.9	?	-1.0%	·
COc1ccc(/C=N/NC(=O)CCC(=O)Nc2ccccc2)cc1OC	1%	-0.3	1.7%	-6.2	-139%[inhibitor]	-4.2%	11%
O=C(C1CCN(c2nc3nonc3nc2N2CCCCC2)CC1)N1CCOCC1	-11%	-0.9	1.8%	0.1	6%	-2.2%	11%
COc1ccc(-c2cc3ncc(-c4ccccc4)c(N)n3n2)cc1	?	1.2	9.0%	1.0	-2%	·	2%
COc1ccc(OCC(O)CNC(=O)Nc2ccc(F)cc2)cc1 (stereo unspecified)	4%	0.9	-0.7%	-2.9	-2%[15.4 µM]	·	20%
CC(C)NC(=O)NC(=O)CSc1nncs1	7%	-0.8	-0.1%	4.9	-37%[inhibitor]	·	13%
COc1ccc2[nH]c(=O)c(CN(CC3CCCO3)C(=S)Nc3cccc(C)c3)cc2c1 (stereo unspecified)	-49%	1.7	5.9%	-1.4	11%[15.4 µM]	·	56µM*
Cc1cc(C)n(-c2ccc(C(=O)NCc3ccc4c(c3)OCO4)cc2)n1	1%	-1.8	1.5%	-5.8	-14%	-6.1%	-2%
O=C(C[C@H]1C(=O)N(Cc2ccccc2)C[C@@H]1c1ccc(Br)cc1)Nc1ccc(Br)cc1	·	·	19%	-3.4	-4%	-0.8%	·
